Compound activity: PubChem BioAssay, ICCB-Longwood Screening Facility, Harvard Medical School
MgrA-DNA mod – S. aureus MgrA-DNA binding modulation. fluorescence polarization. inhibition, %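 (about 10 µg/mL by stock and volumes)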. 0.13% of 84,000 active. AID 602314;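 active means above 50% in either of two replicates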;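 further: 0% = protein plus DNA without compound and 100% = DNA alone without protein; higher means less MgrA bound to DNA so lower polarization; one replicate is shown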
Sa helicase inh – blocks Staphylococcus aureus DNA helicase; purified S. aureus helicase, fluorescence unwinding assay; about half of the hits fall short of the stated cut; inhibition, %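 (tested at about 80 µM)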; 0.05% of 120,000 active; AID 485395;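 active means both duplicates at 50% or more, or one of them with a favoured structure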;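 further: 0% = mean of negative control wells and 100% = mean of positive control wells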
* hit, by the source's call; x = no result given; & = joins results of further samples. These rows are one share of the data, so the mix of outcomes need not match the whole.

Compound	Sa helicase inh	MgrA-DNA mod
CCCn1nc(C(=O)NCC2COc3ccccc3O2)c2ccccc2c1=O (stereo unspecified)	-11	x
O=C(O)CCCN1C(=O)/C(=C/c2ccc(Cl)cc2)SC1=S	-14	x
CCC(C(=O)Nc1ccccc1OC)n1c(SCc2cccc(F)c2)nc2ccncc21 (stereo unspecified)	8	x
Cc1cc(C(F)(F)F)n2ncnc2n1	10	-1.5
CCNC(=S)N/N=C/C1=CCC2CC1C2(C)C (stereo unspecified)	-17	x
CN(C)c1ccc(Nc2cc(N3CCC(=O)CC3)c3noc4c3c2C(=O)c2ccccc2-4)cc1	-28	x
CCNc1nnc(CSc2nc3ccccc3s2)s1	16	-1.7
N#Cc1c(C(F)(F)F)cc(-c2ccccc2)[nH]c1=O	x	2.5&-0.2
CCCOc1ccc(Cc2nnn(CC(=O)O)n2)cc1	1	x
COc1cccc(-c2nc(-c3ccc(NC(=O)c4cccnc4)cc3)no2)c1	9	x
N#CCc1ccc(NC(=O)CSCc2ccccc2)cc1	9	0.2
Cc1cc(C)n2c3c(c(C#N)c2n1)CCCC3	-28	x
O=C(CSc1nc2ccccc2o1)NC(=O)NC1CCCC1	5	x
CC(=O)NCCNc1nc2c(-c3ccc(Cl)cc3)nnn2c2ccccc12	11	-1.8
CC(OC(=O)C1CC1)C(=O)Nc1cccc(Cl)c1 (stereo unspecified)	6	x
O=C(O)c1c[nH]c(=O)n(-c2ccccc2F)c1=O	19	x
CCN1C(=O)C(C(=O)O)C(=O)c2ccccc21 (stereo unspecified)	-10	0.5
CCOC(=O)c1oc2ccccc2c1CN(C)CCc1ccccc1	-3	-1.9
O=S1(=O)CCN2C=CC=NC2=N1	-18	x
N[C@@H](CC1CCCCC1)C(=O)O	x	-1.2
COc1ccc(-c2noc(N(C)CC(=O)Nc3ccc(Oc4ccccc4)cc3)n2)cc1	8	x
O=C(COC(=O)c1ccc(S(=O)(=O)NCc2ccco2)cc1)Nc1ccccc1	-2	x
O=C(c1ccc2c(c1)OCO2)N(Cc1cccs1)C1(C(=O)NC2CCCC2)CCCCC1	15	0.8
COC(=O)c1cc(=O)n2c(n1)sc1cc(OC)ccc12	30	x
CC1CCCCC1NC(=O)c1cccc2c1SCCC2=O (stereo unspecified)	9	1.0

Continued, starting with the last 4 of the part before.
Compound	Sa helicase inh	MgrA-DNA mod
O=C(COC(=O)c1ccc(S(=O)(=O)NCc2ccco2)cc1)Nc1ccccc1	-2	x
O=C(c1ccc2c(c1)OCO2)N(Cc1cccs1)C1(C(=O)NC2CCCC2)CCCCC1	15	0.8
COC(=O)c1cc(=O)n2c(n1)sc1cc(OC)ccc12	30	x
CC1CCCCC1NC(=O)c1cccc2c1SCCC2=O (stereo unspecified)	9	1.0
COc1cc2nc(C3CCC3)n(N)c(=O)c2cc1OC	2	-1.3
O=C(Nc1ccc(Cl)c(C(F)(F)F)c1)C(=S)NCc1ccco1	7	-0.4
Cc1ccc(NS(=O)(=O)c2c(C)nn(C)c2Cl)c(C)c1	x	2.0
CCCCNS(=O)(=O)c1ccc2nc(SCC(=O)C(C#N)c3ccccc3)[nH]c2c1 (stereo unspecified)	-5	x
COCCNC(=S)N1CCC(NC(=O)Nc2ccc(F)cc2)CC1	1	-1.8
Brc1ccc2nc(N3CCOCC3)nc(-c3ccccc3)c2c1	x	-1.7
N#Cc1cnc2c(C(N)=O)cnn2c1N	3	1.3
CSc1nc2ccc(NC(=O)c3ccc(F)c(F)c3)cc2s1	5	-2.0
Cc1sc2nc(SCC(=O)NCCCN3CCOCC3)[nH]c(=O)c2c1C	-1	-4.2
Cc1cc(-c2nc(C)c(-c3nnc(SCC(=O)Nc4ccccc4)n3C)s2)no1	x	-1.1
Cc1cc(N)n(-c2ccc(S(=O)(=O)c3ccc(C(C)C)cc3)cc2)n1	1	x
COc1cc(OC)cc(C(=O)Nc2cc(C(=O)N3CCCC3)ccc2N2CC3CC(C2)c2cccc(=O)n2C3)c1 (stereo unspecified)	-4	x
O=S(=O)(c1ccc(C2CCCCC2)cc1)N1CCc2ccccc21	17	3.0
O=C(CCSc1nnnn1-c1ccccc1)Nc1cc(C(F)(F)F)ccc1Cl	14	x
CCC(C)(C)/C(=N/O)c1ccccc1	x	0.0
CN(Cc1ccccc1)c1ncnc2c1oc1ccccc12	-3	x
Cc1ccc(NC(=S)NC2CCS(=O)(=O)C2)cc1 (stereo unspecified)	8	0.9
O=C(CSc1nnnn1-c1ccc(O)cc1)c1cc(C(F)(F)F)cc(C(F)(F)F)c1	x	-1.8
COc1ccc(C(=O)N2CC(C)CC(C)C2)cc1 (stereo unspecified)	1	-7.1
Cc1onc(-c2ccccc2Cl)c1C(=O)c1ccc(F)cc1	x	-4.8
CC(=O)Oc1ccc2c(=O)c(Oc3ccc(Cl)cc3)c(C)oc2c1	x	-2.7
COc1ccc(C)cc1NC(=O)c1ccc(S(C)(=O)=O)cc1	-4	x
Cc1ccc(OCC(=O)N2CCCCC2)c(C)c1	-4	0.9
O=c1cc(CSc2n[nH]c(=O)n2-c2cccnc2)c2ccc(O)cc2o1	-21	x
COc1cccc(-n2ccnc2SCC(=O)NCc2ccc3c(c2)OCO3)c1	-1	1.1
O=C(O)c1c(CNC2CCCC2)c2ccccc2n1Cc1ccccc1	-2	0.6
C=CCNC(=O)c1ccccc1Sc1ccccc1C#N	x	3.3
O=C(O)/C(=C(/O)c1ccccc1)c1nc2ccccc2[nH]1	7	x
CC(=O)Nc1ccc(NC(=O)CSc2nnc3ccccn23)cc1	13	x
Cc1ccc(C(O)C(C)C)cc1 (stereo unspecified)	3	-2.4
CCOC1=NOC2C3CCC(C3)C12 (stereo unspecified)	0	1.1
COc1cc2c(cc1OC)C(COc1ccccc1OC)N(C(C)=O)CC2 (stereo unspecified)	-11	x
O=C(CC(=O)Nc1ccccc1)Nc1ccccc1	-14	-1.5
COc1cc(NC(=O)C2CC(=O)NC3=C2C(=O)CCC3)cc(OC)c1 (stereo unspecified)	-4	-0.1
COc1ccccc1Nc1n[nH]c(=S)n1C(=O)c1cccs1	4	2.9
CCOC(=O)c1ccc(NCc2ccccc2O)cc1	2	x
COC(=O)CCS(=O)(=O)c1nc(-c2cccs2)cc(C(F)(F)F)n1	7	0.7
NC(=O)COC(=O)C12CC3CC(CC(O)(C3)C1)C2	9	x
Cc1ccccc1NC(=O)N(Cc1cccs1)C(=O)CC#N	x	0.5
O=C(Cn1c(SCc2cccc(Cl)c2)nc2ccncc21)NCC1CCCO1 (stereo unspecified)	15	0.9
Cc1cc(C)c(CSc2nccn2C)c(C)c1	x	-3.1
O=C(COC(=O)c1ccc(N2C(=O)CCC2=O)cc1)Nc1cccc(Cl)c1	1	-0.4
Cc1cc(CNC(C)c2cc3ccccc3o2)c(C)n1-c1cccc(S(=O)(=O)N2CCOCC2)c1 (stereo unspecified)	-6	x
O=C1c2ccccc2C(=O)N1n1c(=O)[nH]c2ccccc2c1=O	-3	0.7
CC1=C(C(=O)OCc2ccccc2)OC(N)=C(C#N)C1c1ccc(F)cc1 (stereo unspecified)	12	-1.4
Nc1cc(=O)[nH]c(=S)n1-c1cccc(C(F)(F)F)c1	6	0.5
COC(=O)/C(C(C)=N)=C(\O)CSc1ccc(Cl)cc1	-3	x
COC(=O)c1sccc1S(=O)(=O)NC1CCS(=O)(=O)C1 (stereo unspecified)	x	5.0
CCOC(=O)c1ccc(NCn2c(=O)oc3ccccc32)cc1	4	-15
CS(=O)(=O)NC1CC(=O)N(c2cccc(F)c2)C1 (stereo unspecified)	5	x

Arranged by count of non-hydrogen atoms (lowest first): some entries from above.
Compound	Sa helicase inh	MgrA-DNA mod
CS(=O)(=O)NC1CC(=O)N(c2cccc(F)c2)C1 (stereo unspecified)	5	x
Nc1cc(=O)[nH]c(=S)n1-c1cccc(C(F)(F)F)c1	6	0.5
Cc1ccccc1NC(=O)N(Cc1cccs1)C(=O)CC#N	x	0.5
COC(=O)CCS(=O)(=O)c1nc(-c2cccs2)cc(C(F)(F)F)n1	7	0.7
COc1cc2c(cc1OC)C(COc1ccccc1OC)N(C(C)=O)CC2 (stereo unspecified)	-11	x

(next part)
Compound	Sa helicase inh	MgrA-DNA mod
Cc1ccc(-c2nnn(CC(=O)N(c3ccccc3)C(C(=O)NCc3ccccc3)c3ccncc3)n2)o1 (stereo unspecified)	-1	-0.7
CC(=O)Nc1sccc1C(=O)O	x	-1.9
CCOC(=O)c1c(NC(=O)c2ccccc2F)sc(C(=O)Nc2cc(C(F)(F)F)ccc2Cl)c1C	x	-1.1
O=C(c1cccc(S(=O)(=O)N2CCCCC2)c1)N1CCCCC1	-1	-1.5
O=C(NCC1CC1)Nc1ccccc1	x	0.3
COC(=O)c1cncc(Br)c1	x	-3.3
Cc1cccc(C2=NN3C(=N)/C(=C\c4ccc5c(c4)OCO5)C(=O)N=C3S2)c1	6	7.2
O=C(c1cc(Cl)c2c(c1)OCO2)N1CCCSc2ccccc21	0	x
CCc1ccc(NC(=O)C(C)N2C(=O)c3ccccc3C2=O)cc1 (stereo unspecified)	-11	0.2
FC(F)(F)c1nnc2n1Nc1nc3ccccc3nc1S2	-129	14
O=c1[nH]c(-c2ccc(Cl)cc2)nc2ccccc12	x	5.1
NC(=O)CC1(C(F)(F)F)OCCO1	-8	-0.2
O=C(Nc1ccc(S(=O)(=O)Nc2ccccn2)cc1)c1ccc(F)cc1	2	1.0
Cc1csc2ncnc(N3CCN(C(=S)Nc4ccc(F)cc4F)CC3)c12	x	5.6
Cc1ccc(S(=O)(=O)NC2CCC(C)CC2)cc1C (stereo unspecified)	-9	x
COc1cc(C#N)ccc1OC(=O)c1oc2ccccc2c1CSc1nc(C)cs1	-6	x
COc1cccc(OCC(=O)Nc2c(C(=O)Nc3ccccc3OC)oc3ccccc23)c1	16	4.4
COc1ccc(CN2CCN(C(=O)CC(C)C)CC2)cc1	6	x
Cc1cc(C)n(-c2ccc(Sc3ccccn3)nn2)n1	x	-2.5
Cc1ccnc(NC(=O)CSC2=NC(=O)C(c3ccccc3)C(=O)N2)c1 (stereo unspecified)	5	1.5
Cc1nnsc1C(=O)Nc1ccc(F)cc1	8	x
NC(=O)COc1ccc(Br)cc1CNCc1ccco1	4	-3.2
O=C(c1ccccc1)N(Cc1ccc2c(c1)OCO2)Cc1nc2ccccc2c(=O)[nH]1	19	-2.1
O=C(O)c1ccc(Nc2nnc(-c3ccccc3)c(-c3ccccc3)n2)cc1O	-23	3.4
COc1ccc(-c2cc(C(F)(F)F)nc(NC(C)c3ccccc3)n2)cc1OC (stereo unspecified)	14	2.8
COC(=O)CC(N)c1ccccc1Cl (stereo unspecified)	-2	x
CN1c2ccccc2N(C)C1c1ccc2c(c1)OCO2	6	0.2
COC(=O)c1cc2occc2n1CC(=O)Nc1cc(C)cc(C)c1	-22	x
COc1ccc(C2=C(C)C(=NCCCN(C)Cc3ccccc3)NS2(=O)=O)cc1	23	x
CN1CCSC1=NCCSc1ccc(Cl)cc1	-7	x
CC(NC(=O)COc1ccccc1O)C1CC2CCC1C2 (stereo unspecified)	8	x
c1cc(-c2nnco2)ccn1	-5	0.2
CC(=O)NC1=NC(=O)/C(=C/c2cn(C(C)=O)nc2-c2ccccc2)S1	x	5.0
CC(NCc1ccc(OC(F)F)cc1OC(F)F)c1ccc(-n2ccnc2)cc1 (stereo unspecified)	6	x
CC1=NC(C(F)(F)F)(C(F)(F)F)C2=C(CC(C)(C)CC2=O)N1C(C)c1ccccc1 (stereo unspecified)	12	3.4
Cc1cc(NNC(=O)c2cccc(C(F)(F)F)c2)nc2c1c(C)nn2C	24	x
O=c1oc(-c2cccc3ncccc23)nn1Cc1ccccc1F	4	-2.0
O=C(COc1ccccc1N1CCCCC1)N1CCOCC1	x	4.7
Cc1ccccc1C(=O)N1CCC(C(=O)N2CCc3ccccc32)CC1	-8	x
CC1(C)CC(=O)c2cc3c(N)c(C(=O)Nc4ccccc4)sc3nc2C1	5	1.1
O=C(Cn1nnc(-c2ccccc2)n1)N(c1ccccc1)c1ccc2ccccc2c1	9	-1.3
FC(F)(F)c1cc(-c2ccc(Cl)cc2)nc(N2CCCCC2)n1	34	x
CC(NC(=O)Cc1ccc(Br)cc1)c1ccccc1 (stereo unspecified)	-9	-1.8
O=C(O)c1ccc(N2CCCC2)cc1	3	-5.6
O=C(C1CC(c2ccccc2F)=NO1)N1CCc2ccccc2C1 (stereo unspecified)	-16	x
NC(=O)c1ccc(OCC(F)(F)F)nc1	x	-1.4
O=C(NC(c1ccc2c(c1)OCO2)c1ccc2cccnc2c1O)c1ccccc1 (stereo unspecified)	2	7.2
Clc1ccc(-n2ncc3c(Nc4ccccc4)ncnc32)cc1	16	x
